ALR H2O2 inh – blocks human ALR sulfhydryl oxidase activity; P55789; purified ALR, DTT oxidation, H2O2 HRP-luminol luminescence; inhibition, % (no concentration beside the values); 290,000 compounds, 3.8% hits; AID 485317;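 active = mean and each replicate at 75% or more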;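 note: stock transfer was 7.5 nL into about 7.5 µL; 0% = neutral wells and 100% = wells with inactivated enzyme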
Target sequence (P55789 whole entry, looked up): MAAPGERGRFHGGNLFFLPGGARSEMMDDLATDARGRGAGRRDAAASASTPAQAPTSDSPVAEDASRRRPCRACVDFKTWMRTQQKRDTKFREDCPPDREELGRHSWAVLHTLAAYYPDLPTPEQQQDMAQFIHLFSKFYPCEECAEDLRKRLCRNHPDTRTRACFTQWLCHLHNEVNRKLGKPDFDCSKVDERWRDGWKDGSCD
rRNA inh HTS – inhibits bacterial ribosomal RNA function over humanized ribosomes; 350,000 compounds, 1.6% hits; GFP signal change (wild-type ribosome), % (test concentration not listed); E. coli WT GFP vs humanized-ribosome RFP mutants, fluorescence, 24 h; stronger effect = lower value; DMSO median 0, no signal -100; AID 720706;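 active = significant combined selectivity score with lowered wild-type GFP, culture density cut under 30%, mutant RFP and density less affected; inactive = any of these conditions unmet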; note: one replicate is shown; some compounds called inactive have numbers as strong as hits
FGF22 binding – shifts melting point of recombinant human FGF22; Q9HCT0; recombinant FGF22 thermal shift, SYPRO orange fluorescence; percent of sucrose octasulfate shift, DMSO zero; calls only at 9.99 µM; 340,000 compounds, 1.5% hits; AID 651658;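 active = melting point raised past a set limit in the mean and every replicate; three in four hits are not shown here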
Target sequence (Q9HCT0 whole entry, looked up): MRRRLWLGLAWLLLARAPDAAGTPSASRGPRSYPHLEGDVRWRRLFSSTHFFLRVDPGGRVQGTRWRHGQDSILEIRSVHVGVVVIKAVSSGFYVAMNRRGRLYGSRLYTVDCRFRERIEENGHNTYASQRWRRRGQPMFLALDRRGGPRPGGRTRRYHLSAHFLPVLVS
UCH37 DUB inh – inhibitors of human deubiquitinating enzyme UCH37. purified proteasome/UCH37, Ub-AMC cleavage fluorescence. Q9Y5K5. inhibition, % (test concentration not listed). 330,000 compounds, 0.33% hits;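 active = mean of two replicates above 20%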;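 note: 0% = compound-free wells with enzyme and 100% = wells lacking proteasome; stock transfer was 100 nL into about 20 µL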
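System: Proteasome-associated human UCH37 deubiquitinase; Input: 0.15 nM proteasome in added enzyme buffer; Also added: Ub-AMC substrate from 1 µM stock; Incubation: 30 min compound-proteasome preincubation then 25 min substrate reaction, room temperature; Detection: fluorescence, ex 355 nm, em 460 nm; Read-out: % inhibition of Ub-AMC cleavage fluorescence; Benchmarks: no-proteasome and no-compound wells.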
Ecoli growth – E. coli growth inhibition. Escherichia coli growth, OD600, 23 h; stronger effect = lower value. OD600 absorbance (no concentration beside the values). 330,000 compounds, 0.21% hits. AID 1053175;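 active = OD600 absorbance below the run mean of sample wells minus 3.6 SD, in any replicate, cut at about 0.56 in these data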;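 note: stock transfer was 300 nL into about 60 µL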
rRNA inh HTS OD600 – also measured in rRNA inh HTS; calls as there; OD600 change, %; measured here: OD600 growth;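 optical density of the mix in the first replicate; 0 = DMSO median and -100 = no signal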
rRNA inh HTS RFP – recorded beside rRNA inh HTS, whose call it bears; RFP signal change, %; measured here: RFP humanized mutant strains;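 first replicate; 0 = DMSO median and -100 = no signal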
Starred values were filed as active, the others as inactive; i = inactive; . = no result given. This is a subset, so the mix of outcomes need not match the whole.

Start of the data: the first 5 compounds, to show the layout:
SMILES | ALR H2O2 inh | rRNA inh HTS | FGF22 binding | UCH37 DUB inh | Ecoli growth | others
CCN(CC)CC1CCCCN1CC(=O)N1c2ccccc2C(=O)Nc2cccnc21 (stereo not given) | -2.2 | . | . | . | .
NC(Cc1c[nH]c2ccc(O)cc12)C(=O)O (stereo not given) | . | . | . | . | 0.669
CC[C@]12CCCN3CCc4c(n(c5ccccc45)[C@](O)(C(=O)OC)C1)C32 (stereo not given in full) | . | . | . | . | 0.672
COc1cc2c(c(OC)c1OC)-c1c(cc(OC)c(OC)c1OC)CC(C)C(C)C2 (stereo not given) | . | . | . | . | 0.694
CCc1ccccc1OCC(O)CNC1CCCc2ccccc21 (stereo not given) | . | . | . | . | 0.604

Main list, from the first entry:
SMILES | ALR H2O2 inh | rRNA inh HTS | FGF22 binding | UCH37 DUB inh | Ecoli growth | others
CCN(CC)CC1CCCCN1CC(=O)N1c2ccccc2C(=O)Nc2cccnc21 (stereo not given) | -2.2 | . | . | . | .
NC(Cc1c[nH]c2ccc(O)cc12)C(=O)O (stereo not given) | . | . | . | . | 0.669
CC[C@]12CCCN3CCc4c(n(c5ccccc45)[C@](O)(C(=O)OC)C1)C32 (stereo not given in full) | . | . | . | . | 0.672
COc1cc2c(c(OC)c1OC)-c1c(cc(OC)c(OC)c1OC)CC(C)C(C)C2 (stereo not given) | . | . | . | . | 0.694
CCc1ccccc1OCC(O)CNC1CCCc2ccccc21 (stereo not given) | . | . | . | . | 0.604
CC1CC2C3CC(F)C4=CC(=O)C=C[C@]4(C)[C@@]3(F)C(O)C[C@]2(C)[C@@]1(O)C(=O)COC(=O)C(C)(C)C (stereo not given in full) | . | . | . | . | 0.665
CN(C)CCCSc1ccccc1NC(=O)/C=C/c1ccccc1 | 3.0 | . | . | 5.7 | .
COc1ccc(-c2oc3c(CC=C(C)C)c(O[C@@H]4O[C@H](CO)[C@@H](O)[C@H](O)[C@H]4O)cc(O)c3c(=O)c2O[C@@H]2O[C@@H](C)[C@H](O)[C@@H](O)[C@H]2O)cc1 | 17.2 | . | . | 3.1 | .
O=C1NC(=O)C2(CCOc3ccc(F)cc32)N1 (stereo not given) | . | 30.1 | i | . | . | rRNA inh HTS OD600=29.1;rRNA inh HTS RFP=2.4
COc1ccc(C=NNC(=O)c2ccncc2)cc1OC | . | . | . | 8.5 | 0.67

Structures above with a halogen:
SMILES | ALR H2O2 inh | rRNA inh HTS | FGF22 binding | UCH37 DUB inh | Ecoli growth | others
CC1CC2C3CC(F)C4=CC(=O)C=C[C@]4(C)[C@@]3(F)C(O)C[C@]2(C)[C@@]1(O)C(=O)COC(=O)C(C)(C)C (stereo not given in full) | . | . | . | . | 0.665
O=C1NC(=O)C2(CCOc3ccc(F)cc32)N1 (stereo not given) | . | 30.1 | i | . | . | rRNA inh HTS OD600=29.1;rRNA inh HTS RFP=2.4

Compound activity: PubChem BioAssay, several laboratories
